Rango release inh: inhibition of RanGTP-driven Rango-importin beta dissociation | O95149+P62826 | Biochemical FRET Rango-importin beta, RanGTP-induced dissociation | Potency, µM (titrated, usually from 46.1 µM), for inactives: top-dose activity change, negative = inhibition | 0.071% of 340,000 active | AID 540253; active means falling FRET ratio curve, often poorly fitted, with flat reads before Ran was added; inconclusive means other falling curves, or compound fluorescence or quenching; inactive means flat or rising ratio curve;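 further: potency means the concentration at half of the fitted maximal effect; % of control where 0% means no effect; nearly all actives have a fitted effect of over 45% in size; -100% = wells without RanGTP and RCC1; the record marks most hits as doubtful in a second field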
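Rango FRET biosensor (snurportin-1 IBB flanked by N-terminal EYFP and C-terminal CFP10) at 0.1 uM, with 0.25 uM importin beta in PBS, 1mM DTT, 0.02% Tween-20, 0.1% BSA. 0.6 uM Ran, 2mM GTP and 0.2 uM RCC1 were then added for 45 min at room temperature. Inhibition read as loss of FRET rise.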
Rango complex inh: prevents formation of the Rango-importin beta complex | Q14974 | Rango CFP/YFP FRET sensor + importin beta, 45 min | Potency, µM (top dose mostly 92.2 µM), without a hit: top-dose inhibition of complex formation | 0.031% of 340,000 active | AID 540263; active = rising FRET ratio curve, often small or poorly fitted; inconclusive = mostly compound fluorescence or quenching in the first reads; inactive = flat curves in all reads;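 further: potency means the concentration at half of the fitted maximal effect; 0% = DMSO wells and 100% = buffer wells lacking importin beta; nearly all actives have a fitted effect of over 15% in size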
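FRET biosensor Rango (snurportin 1 IBB between N-terminal EYFP and C-terminal Cerulean), 50 nM in PBS/1 mM DTT/0.02% Tween-20/0.1% BSA, preincubated 5 min RT with compound; 0.125 microM importin beta added, 45 min RT, CFP/YFP FRET ratio read.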
GLA inh pH 4.5: inhibitors of human alpha-galactosidase A at pH 4.5; P06280; activity change, negative = inhibition, % at 105 µM; 230,000 tested, under 10 active; purified enzyme, 4-MU-alpha-Gal fluorescence, pH 4.5; inconclusive = small, poorly fitted or top-dose-only inhibition, or a rising curve; inactive = flat fitted curve, though single readings scatter; no compound was filed as active;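 further: 0% = full activity with enzyme and -100% = basal without enzyme; dose as in the result columns while the protocol names 77 µM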
Target sequence (P06280 whole entry, looked up): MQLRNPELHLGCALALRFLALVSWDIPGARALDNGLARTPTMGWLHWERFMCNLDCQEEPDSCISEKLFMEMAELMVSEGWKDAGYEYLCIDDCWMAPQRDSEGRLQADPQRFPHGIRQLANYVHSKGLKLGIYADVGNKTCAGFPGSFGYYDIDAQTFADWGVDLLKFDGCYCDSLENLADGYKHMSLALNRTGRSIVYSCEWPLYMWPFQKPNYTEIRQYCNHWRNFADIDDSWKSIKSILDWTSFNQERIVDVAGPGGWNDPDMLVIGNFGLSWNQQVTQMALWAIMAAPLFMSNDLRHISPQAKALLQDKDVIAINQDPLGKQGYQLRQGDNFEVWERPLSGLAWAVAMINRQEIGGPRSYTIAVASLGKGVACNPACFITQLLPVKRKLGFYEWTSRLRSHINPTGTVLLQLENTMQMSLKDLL
miR-21 reporter: miR-21 reporter, rising signal | HeLa miR-21 FLuc reporter, luciferase, 48 h | Potency, µM (top dose mostly 38.3 µM), for the others: at the top dose reporter change, positive = more light | 340,000 tested, under 10 active; active = well fitted rising curve with a large enough effect; inconclusive = small, poorly fitted or top-dose-only effect; inactive = no such curve, though single readings can be large or run the other way;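 further: % of control where 0% means no effect; miR-21 action dims this reporter so a rising signal means less miR-21 action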
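Compounds were titrated across several concentrations (up to approximately 40 uM) and incubated 48 hours with HeLa miR-21-FLuc reporter cells (miR-21 target sequence downstream of FLuc, endogenous miR-21). Readout was firefly luciferase luminescence after lytic detection reagent.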
An asterisk follows results filed as active; [ ] = another dose, or the depositor's remark.

Results for CCN(CC(=O)NCc1cccs1)C(=O)/C=C/c1cc(Br)ccc1OC(F)F ?
Rango release inh: 3%; Rango complex inh: -1.0%

Results for CCOC(=O)N1CCC(N2C(=O)c3ccccc3C2Nc2cc(Cl)c(OC)cc2OC)CC1 (stereo unspecified) ?
Rango release inh: 12%; Rango complex inh: -0.7%; GLA inh pH 4.5: 8; miR-21 reporter: -4%

How did Cc1cc(NC(=O)CSCC(=O)N(C)Cc2cccc(Cl)c2)no1 do in these assays?
Rango release inh: 11%; Rango complex inh: -0.7%

Results for CC(OC(=O)/C=C/c1cccc(C(F)(F)F)c1)C(=O)NC1CCCCC1C (stereo unspecified) ?
Rango release inh: 13%; Rango complex inh: -2.1%

How did CSc1nc2nccc(-c3ccc(Cl)cc3)n2n1 do in these assays?
Rango release inh: -3%; Rango complex inh: -0.2%; GLA inh pH 4.5: 12; miR-21 reporter: -9%

How did Cc1cc(=O)[nH]c2c1cnn2Cc1ccccc1 do in these assays?
Rango release inh: -16%; Rango complex inh: inconclusive; GLA inh pH 4.5: 4; miR-21 reporter: -12%

How did O=C(N=Nc1c(O)[nH]c2ccccc12)c1ccco1 do in these assays?
Rango release inh: inconclusive; Rango complex inh: 0.0%; GLA inh pH 4.5: -6; miR-21 reporter: -13%

What do the screens show for `COc1cc(NC2c3ncccc3C(=O)N2Cc2ccco2)cc(OC)c1` (stereo unspecified)?
Rango release inh: -9%; Rango complex inh: -4.8%; GLA inh pH 4.5: -1; miR-21 reporter: -7%

Results for CCOC(=O)c1ccc[n+]([O-])c1 ?
Rango release inh: -1%; Rango complex inh: 1.0%

What do the screens show for `COc1ccc2cc(CCN3C(=O)c4ccccc4C3=O)c(=O)[nH]c2c1`?
Rango release inh: -35%; Rango complex inh: 1.1%; GLA inh pH 4.5: -3; miR-21 reporter: -6%

How did CC(C)COC(=O)c1nnsc1NC(=O)Nc1ccccc1 do in these assays?
Rango release inh: -4%; Rango complex inh: 1.3%; GLA inh pH 4.5: -3; miR-21 reporter: -1%

How did COc1ccc2c(c1C)CCC(C)(C#N)C2=O (stereo unspecified) do in these assays?
Rango release inh: 17%; Rango complex inh: 1.6%

Results for CC(C)Oc1ccc(C(=O)Nc2ccc(Cl)c(S(=O)(=O)Nc3ccc(Cl)cc3)c2)cc1 ?
Rango release inh: -21%; Rango complex inh: 0.1%; GLA inh pH 4.5: -11; miR-21 reporter: 27%

How did Clc1cccc(Cl)c1NC1=NCCC1 do in these assays?
Rango release inh: 5%; Rango complex inh: -1.5%; GLA inh pH 4.5: 4; miR-21 reporter: -1%

What do the screens show for `CNc1nn(-c2cccc(Cl)c2)nc1N`?
Rango release inh: -12%; Rango complex inh: 1.2%; GLA inh pH 4.5: -18; miR-21 reporter: -62%

What do the screens show for `CC(=O)N(C(C)=O)c1cccc2c(N(C(C)=O)C(C)=O)cccc12`?
Rango release inh: -5%; Rango complex inh: 9.3%; GLA inh pH 4.5: 2; miR-21 reporter: -1%

How did O=C(NCc1ccco1)C1CCN(C(=O)c2ccc(Cl)cc2)CC1 do in these assays?
Rango release inh: 2%; Rango complex inh: -1.5%

Results for CC(=O)NC1=NN(C(C)=O)C(C)(c2cccnc2)S1 (stereo unspecified) ?
Rango release inh: -6%; Rango complex inh: 0.7%; GLA inh pH 4.5: 7[21.1 µM]; miR-21 reporter: 18%

Results for COC(=O)C1=CN(Cc2ccc(OC)cc2)C=C(C(=O)OC)C1c1cc(OC)c(OC)c(OC)c1 ?
Rango release inh: inconclusive; Rango complex inh: inconclusive; miR-21 reporter: -1%

How did Clc1ccc(C2=NCCN2)cc1 do in these assays?
Rango release inh: -3%; Rango complex inh: -4.2%; GLA inh pH 4.5: 5; miR-21 reporter: 5%

Results for CCOC(=O)Cn1c(=O)oc2cc(S(=O)(=O)N3CCC(N4CCCCC4)CC3)ccc21 ?
Rango release inh: 0%; Rango complex inh: 3.3%; GLA inh pH 4.5: 0; miR-21 reporter: 0%

What do the screens show for `COc1cc(CO)c(OC)c([N+](=O)[O-])c1`?
Rango release inh: -1%; Rango complex inh: 1.5%; miR-21 reporter: -1%

Results for O=C(NC(N1CCCC1)C(Cl)(Cl)Cl)c1ccccc1 (stereo unspecified) ?
Rango release inh: 3%; Rango complex inh: -1.2%; GLA inh pH 4.5: 2; miR-21 reporter: -10%

How did Cc1ccc(C(=O)Nc2cc(C(F)(F)F)ccc2N2CCCCC2)cc1[N+](=O)[O-] do in these assays?
Rango release inh: 7%; Rango complex inh: -5.3%; GLA inh pH 4.5: -5; miR-21 reporter: -9%

What do the screens show for `O=C(Nc1nnc(C2=COCCO2)o1)c1ccc([N+](=O)[O-])s1`?
Rango release inh: -3%; Rango complex inh: -2.3%; miR-21 reporter: 6%

Results for COc1ccc(CCC(=O)Nc2ccc(S(=O)(=O)N3CCOCC3)cc2)cc1 ?
Rango release inh: 15%; Rango complex inh: -1.4%; miR-21 reporter: 1%

How did Cc1ccc(NC2=NCC(=O)N2Cc2ccc3c(c2)OCO3)c(C)c1 do in these assays?
Rango release inh: -19%; Rango complex inh: 3.6%; GLA inh pH 4.5: 5; miR-21 reporter: -15%

Results for CCN(CC)CCN(C(=O)CCOc1ccccc1)c1nc2c(F)cc(F)cc2s1 ?
Rango release inh: -10%; Rango complex inh: 0.3%; GLA inh pH 4.5: 10; miR-21 reporter: -3%

How did OCC1(CCc2ccccc2)CCN(C/C=C/c2ccccc2)CC1 do in these assays?
Rango release inh: 0%; Rango complex inh: 0.2%; miR-21 reporter: -2%

Results for Cc1nn(CC(=O)OCC(=O)NCCc2ccc(F)cc2)c(C)c1[N+](=O)[O-] ?
Rango release inh: 3%; Rango complex inh: 4.1%

How did CC(C(=O)O)c1ccc(CC2CCCC2=O)cc1 (stereo unspecified) do in these assays?
Rango release inh: -7%; Rango complex inh: -1.9%; GLA inh pH 4.5: -7

What do the screens show for `Cc1cccc(NC(=O)c2cnc3sccn3c2=O)n1`?
Rango release inh: 0%; Rango complex inh: -0.8%

What do the screens show for `COc1ccc(-c2sc(C(=O)c3ccc(Cl)cc3Cl)cc2CC(=O)O)cc1`?
Rango release inh: inconclusive; Rango complex inh: inconclusive; miR-21 reporter: 21%

Results for O=C1c2ccccc2C(=O)N1CNc1ccccc1 ?
Rango release inh: 6%; Rango complex inh: -2.8%; GLA inh pH 4.5: -10; miR-21 reporter: -3%

How did O=C(C[n+]1cc(-c2ccc(F)cc2)n2c1CCC2)Nc1nc(-c2ccccc2)cs1 do in these assays?
Rango release inh: 12%; Rango complex inh: 3.0%; GLA inh pH 4.5: -4; miR-21 reporter: -25%

What do the screens show for `O=C(NNC(=O)c1cccc(S(=O)(=O)N2CCCCC2)c1)c1ccccc1`?
Rango release inh: -1%; Rango complex inh: 0.6%

What do the screens show for `CN1CCN(c2ccc(NC(=O)Cc3ccccc3)cc2)CC1`?
Rango release inh: 0%; Rango complex inh: 6.9%; GLA inh pH 4.5: -9; miR-21 reporter: -46%

What do the screens show for `Cc1cc(/C=C2/NC(=O)NC2=O)c(C)n1-c1ccccn1`?
Rango release inh: -14%; Rango complex inh: -2.3%; GLA inh pH 4.5: -5; miR-21 reporter: -27%

How did COc1ccccc1N1CCN(C2CCN(C3CCC(c4ccccc4)CC3)CC2)CC1 (stereo unspecified) do in these assays?
GLA inh pH 4.5: -5; miR-21 reporter: -5%

What do the screens show for `CCn1nc(NC(=O)Cc2ccc(OC)cc2)c2cc3cc(C)ccc3nc21`?
Rango release inh: inconclusive; Rango complex inh: inconclusive; GLA inh pH 4.5: 6; miR-21 reporter: -22%

How did COc1ccc2c(c1)c(C(=O)N/N=C/c1ccccc1Cl)c(C)n2C do in these assays?
Rango release inh: -2%; Rango complex inh: -0.4%; GLA inh pH 4.5: -12; miR-21 reporter: -6%

What do the screens show for `CC(=O)c1ccc2c(c1)Nc1ccccc1S2`?
Rango release inh: 6%; Rango complex inh: 2.8%; GLA inh pH 4.5: -3; miR-21 reporter: -20%

What do the screens show for `COc1ccc(OC)c2c(=O)cc(C(=O)O)[nH]c12`?
Rango release inh: -4%; Rango complex inh: 0.5%; GLA inh pH 4.5: 0; miR-21 reporter: -5%

How did CCOC(=O)c1c(C)oc2ccc(OC(=O)c3cccs3)cc12 do in these assays?
Rango release inh: 7%; Rango complex inh: -0.9%; GLA inh pH 4.5: -2; miR-21 reporter: -29%

Results for CCCCCCCN=C(C)c1ccccc1O ?
Rango release inh: 14%; Rango complex inh: 1.7%; GLA inh pH 4.5: 3; miR-21 reporter: -10%

What do the screens show for `O=C(Nc1ccccc1F)NC1CCCc2ccccc21` (stereo unspecified)?
Rango release inh: 15%; Rango complex inh: -3.5%; GLA inh pH 4.5: -1; miR-21 reporter: 3%

How did CCOC(=O)Cc1csc(SCC(=O)NC2CCCC2)n1 do in these assays?
Rango release inh: 1%; Rango complex inh: -0.1%

Results for CC(C)(C)NC(=O)CN1C(=O)NC(c2ccccc2)(c2ccccc2)C1=O ?
Rango release inh: -1%; Rango complex inh: -0.3%; miR-21 reporter: 0%

How did O=C(COC(=O)C1CC2CCCC(C1)C2=O)c1cccc(Br)c1 (stereo unspecified) do in these assays?
Rango release inh: 12%; Rango complex inh: 3.0%

How did COC(=O)c1cccc(Oc2nc3c(c(=O)n(C)c(=O)n3C)n2Cc2ccc(C)cc2)c1 do in these assays?
Rango release inh: 17%; Rango complex inh: -0.4%

How did CC(=O)N1CCc2c(sc(NC(=O)Cc3ccc(C)cc3C)c2C#N)C1 do in these assays?
Rango release inh: 0%; Rango complex inh: 0.3%; miR-21 reporter: 7%

Results for CCOc1ccc2[nH]c(=O)c(CN(CCO)Cc3nnnn3CCc3ccccc3)cc2c1 ?
Rango release inh: -19%; Rango complex inh: 0.1%; GLA inh pH 4.5: 2; miR-21 reporter: -4%

Results for CCNC(=O)NC(=O)CSc1ccccc1F ?
Rango release inh: -3%; Rango complex inh: 0.0%; GLA inh pH 4.5: -5; miR-21 reporter: -20%

What do the screens show for `CCOc1ccc(NC(=O)NCCCn2c(C)nc3cc(C)c(C)cc32)cc1`?
Rango release inh: 1%; Rango complex inh: 0.5%; GLA inh pH 4.5: -6; miR-21 reporter: 8%

How did Cc1ccc(N2CC(C(N)=O)CC2=O)cc1C (stereo unspecified) do in these assays?
Rango release inh: 8%; Rango complex inh: 0.3%; GLA inh pH 4.5: 6; miR-21 reporter: 0%

Results for O=C(NCCCn1ccnc1)NC(C(F)(F)F)C(F)(F)F ?
Rango release inh: 20%; Rango complex inh: -4.7%; GLA inh pH 4.5: -2; miR-21 reporter: -2%

How did O=C1CC(=O)c2c1cccc2[N+](=O)[O-] do in these assays?
GLA inh pH 4.5: -8; miR-21 reporter: 1%

By substructure: those above with a thiophene ring, fused or not (5)
Results for CCN(CC(=O)NCc1cccs1)C(=O)/C=C/c1cc(Br)ccc1OC(F)F ?
Rango release inh: 3%; Rango complex inh: -1.0%

What do the screens show for `O=C(Nc1nnc(C2=COCCO2)o1)c1ccc([N+](=O)[O-])s1`?
Rango release inh: -3%; Rango complex inh: -2.3%; miR-21 reporter: 6%

What do the screens show for `COc1ccc(-c2sc(C(=O)c3ccc(Cl)cc3Cl)cc2CC(=O)O)cc1`?
Rango release inh: inconclusive; Rango complex inh: inconclusive; miR-21 reporter: 21%

How did CCOC(=O)c1c(C)oc2ccc(OC(=O)c3cccs3)cc12 do in these assays?
Rango release inh: 7%; Rango complex inh: -0.9%; GLA inh pH 4.5: -2; miR-21 reporter: -29%

How did CC(=O)N1CCc2c(sc(NC(=O)Cc3ccc(C)cc3C)c2C#N)C1 do in these assays?
Rango release inh: 0%; Rango complex inh: 0.3%; miR-21 reporter: 7%

Entries shown so far that have bromine:
Results for CCN(CC(=O)NCc1cccs1)C(=O)/C=C/c1cc(Br)ccc1OC(F)F ?
Rango release inh: 3%; Rango complex inh: -1.0%

How did O=C(COC(=O)C1CC2CCCC(C1)C2=O)c1cccc(Br)c1 (stereo unspecified) do in these assays?
Rango release inh: 12%; Rango complex inh: 3.0%

Some of the compounds tested; the hit share may differ from the screen's.
